KCNQ2 enhance: potentiators of rat KCNQ2 potassium channel. Potassium voltage-gated channel subfamily KQT member 2 (Rattus norvegicus), O88943. CHO-K1 KCNQ2, FluxOR thallium flux fluorescence; active compounds read high. B-score at 10 µM. 310,000 compounds, 0.54% hits. AID 2239, 2010;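 active = fluorescence ratio B-score at least 3 SD of library B-scores, with initial fluorescence B-score within 3 SD, cut at about 5.3 in these data; same plate scores as AID 2156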;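 note: B-score of peak minus minimum over baseline fluorescence ratio after K+ and Tl+ stimulus; positive B-score means potentiation of KCNQ2 with more thallium influx and brighter signal; only the inactives scoring about 0 or higher are listed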
Target sequence (O88943 whole entry, looked up): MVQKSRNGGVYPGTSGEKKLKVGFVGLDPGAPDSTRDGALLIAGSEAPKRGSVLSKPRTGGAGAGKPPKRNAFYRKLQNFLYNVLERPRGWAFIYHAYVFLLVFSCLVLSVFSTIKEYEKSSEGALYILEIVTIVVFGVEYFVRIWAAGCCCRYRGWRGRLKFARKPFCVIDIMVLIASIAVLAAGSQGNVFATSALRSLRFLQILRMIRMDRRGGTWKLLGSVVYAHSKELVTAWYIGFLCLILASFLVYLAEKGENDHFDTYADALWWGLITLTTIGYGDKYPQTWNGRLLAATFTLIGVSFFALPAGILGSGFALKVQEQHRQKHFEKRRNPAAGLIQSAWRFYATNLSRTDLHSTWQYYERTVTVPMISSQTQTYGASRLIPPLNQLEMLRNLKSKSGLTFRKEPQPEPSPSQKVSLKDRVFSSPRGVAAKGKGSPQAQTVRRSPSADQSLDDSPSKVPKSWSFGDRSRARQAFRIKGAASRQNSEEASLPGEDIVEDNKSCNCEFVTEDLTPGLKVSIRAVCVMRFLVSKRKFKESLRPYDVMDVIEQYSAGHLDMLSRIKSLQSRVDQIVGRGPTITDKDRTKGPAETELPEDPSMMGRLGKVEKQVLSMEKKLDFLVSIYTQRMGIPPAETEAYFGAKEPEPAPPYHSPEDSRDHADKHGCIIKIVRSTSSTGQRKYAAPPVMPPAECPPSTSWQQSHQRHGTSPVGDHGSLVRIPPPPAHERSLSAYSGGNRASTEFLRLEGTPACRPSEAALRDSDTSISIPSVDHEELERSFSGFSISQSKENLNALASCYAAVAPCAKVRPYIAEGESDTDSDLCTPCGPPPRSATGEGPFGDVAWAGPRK
KCNQ2 enhance baseline: also measured in KCNQ2 enhance; calls as there; B-score; compound at 10 µM; measured here: initial fluorescence intensity artifact check;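 brightness before thallium and not channel activity; 0 = typical well and far values either way flag optical interference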
The depositor's hits bear a star. The list is partial (hit frequency here may not be typical).

SMILES | KCNQ2 enhance | KCNQ2 enhance baseline
CC1(c2cccc(Br)c2)NC(=O)N(CC(=O)Nc2cccnc2Cl)C1=O (stereo not given) | 2.1 | 0.3
C=CCSc1ncc(CO)n1Cc1ccccc1 | 2.6 | 0.49
C/C(=N/OC(=O)c1c(-c2c(F)cccc2Cl)noc1C)c1cnccn1 | 0.1 | 0
CCn1nnc(NC(=O)COc2cc(C)ccc2C(C)C)n1 | 0.34 | -1
COc1ccc(CCNC(=O)CNS(=O)(=O)c2ccc(Cl)cc2)cc1 | 0.29 | -1.3
Cc1nn(C)c(C(=O)Nc2ccc3c(c2)OCO3)c1[N+](=O)[O-] | 0.42 | 0.89
Fc1ccc(-n2c(-c3ccc4ccccc4n3)n[nH]c2=S)cc1Cl | 0.63 | -0.64
CCN1CCN(CCCNC(=O)C(=O)c2c(C)[nH]c3ccccc23)CC1 | 0.94 | -0.26
CCc1nnc(NC(=O)C(CC)CC)s1 | 0.38 | -1.1
O=C(CNC(=O)c1ccc(S(=O)(=O)N2CCCC2)cc1)N/N=C/c1ccc(F)cc1 | 2.3 | -2.4
O=C(NCc1nc2ccccc2[nH]1)c1ccccc1F | 1.1 | 0.97
O=C(O)c1cc(-c2ccccc2)on1 | 0.26 | 0.13
Cc1ncc(CN2CCC(CO)(Cc3ccccc3)CC2)s1 | 0.25 | 0.8
Cc1ccc(C(=O)NCCCNC(=O)COc2ccc(Cl)cc2)cn1 | 1.3 | -0.94
CCC(C(=O)NCc1ccccn1)n1c2ccccc2c2nc(=O)cc(C)n21 (stereo not given) | 0.35 | 1.9
COc1ccc(/C=N/NC(=O)CCc2n[nH]c(=O)[nH]c2=O)cc1OC | 0.03 | 1.1
COc1cccc(OC)c1C(=O)Nc1ccc2c(c1)N(S(=O)(=O)c1cccs1)CCC2 | 1.2 | -0.58
CC(C)=CC(O)C/C(C)=C/COc1ccc2ccc(=O)oc2c1 (stereo not given) | 1.3 | 0.42
COc1cc(OC)c(C(=O)Oc2ccc3c(c2)OCO3)cc1OC | 0.15 | -1
COc1ccc2nc(SCC(=O)Nc3cc(OC)c(OC)cc3C(=O)O)c(C)cc2c1 | 0.01 | 1.4
CCN(CC)S(=O)(=O)c1ccc(OC)c(NC(=O)c2cccc(C)c2[N+](=O)[O-])c1 | 2.1 | 0.34
COc1ccc(C)cc1N(CC(=O)Nc1ccc(S(=O)(=O)N2CCCC2)cc1)S(C)(=O)=O | 0.73 | -1.1
CCc1nnc(NC(=O)CSc2ncc(-c3ccccc3)[nH]2)s1 | 0.89 | -0.32
CCCc1nnc(NC(=O)C(=O)NCCN(CC)CC)s1 | 0.58 | 0.76
COc1cc(Cn2c(-c3ccc(O)c(OC)c3)nc3ccccc32)ccc1O | 0.33 | -1.5
O=C(Nc1cccnc1)C1CCCN1S(=O)(=O)c1ccc(Cl)c(Cl)c1 (stereo not given) | 0.03 | 0.41
CCOC(=O)CCC(NC(=O)c1ccc(NCN2C(=O)CCC2=O)cc1)C(=O)OCC (stereo not given) | 0.7 | 0.32
Cc1ccccc1OCC(=O)NCCC(=O)O | 0.56 | -0.03
CCN(CC)S(=O)(=O)c1cc(Cl)ccc1OC | 1.4 | -0.05
CCNC(=O)C(Cc1ccccc1)NC(=O)OCc1ccccc1 (stereo not given) | 0.08 | 2.5

Quoted from the listing:
KCNQ2 enhance result of CCN(CC)S(=O)(=O)c1cc(Cl)ccc1OC = 1.4
KCNQ2 enhance result of Cc1ccccc1OCC(=O)NCCC(=O)O = 0.56
KCNQ2 enhance baseline result of COc1cc(Cn2c(-c3ccc(O)c(OC)c3)nc3ccccc32)ccc1O = -1.5
KCNQ2 enhance baseline result of CCCc1nnc(NC(=O)C(=O)NCCN(CC)CC)s1 = 0.76

Next part:
SMILES | KCNQ2 enhance | KCNQ2 enhance baseline
C[N+](C)(C)CCOC(=O)C1(c2ccccc2)CCCC1 | 1 | 1.3
COc1ccc(NC(=O)CSc2ncnc3c2cnn3Cc2ccccc2)cc1OC | 0.67 | -0.4
CC(=O)N1CCN(c2ccnc3cc(Cl)ccc23)CC1 | 0.01 | 0.76
Cc1ccc(C(=O)N(CC(=O)Nc2sc(C)c(C)c2C(N)=O)C2CCCC2)cc1 | 0.48 | -0.13
CCc1ccc(N=C2NC(=O)/C(=C/c3cc(OC)c(OC)c(OC)c3)S2)cc1 | 0.86 | -0.13
CC(C#N)Sc1ncnc2sc3c(c12)CCC3 (stereo not given) | 0.17 | 1.5
O=C1/C(=C/c2cccnc2)Cc2ccc(Cl)cc21 | 0.02 | -2.1
CCc1ccc(CN2CCC(Oc3ccc(C(=O)N4CCCCC4)cc3)CC2)cc1 | 0.81 | -0.46
O=C(O)CSc1nc(-c2ccccc2)nc2c1oc1ccccc12 | 0.08 | 1.8
COc1ccc(NCC(=O)N/N=C(\C)c2cc3ccccc3o2)cc1 | 0.42 | -0.84
Cc1nnc(C)n1/N=C/c1ccc(-c2ccccc2)cc1 | 1.7 | 1.8
Brc1ccc(-n2c(SCc3nc4ccccc4[nH]3)nnc2-c2ccncc2)cc1 | 0.26 | 1.2
Cc1ccc(C2NNC(=O)C2NC(=O)c2ccccc2)cc1 (stereo not given) | 2.4 | -0.46
CCOc1ccc(S(=O)(=O)N(CC)CC(=O)N2CCOCC2)cc1C | 1.2 | -0.81
CC(=O)N1SC(N)=NC1c1ccccc1 (stereo not given) | 0.03 | -1.8
COc1ccc([N+](=O)[O-])cc1NC(=O)Nc1ccc(OC)c(OC)c1 | 2.5 | -0.6
Cc1nc2ccccn2c1-c1ccnn1S(=O)(=O)c1ccc(F)cc1 | 0.9 | -2.2
COc1ccc2[nH]c(=O)c(CN(Cc3cccnc3)C(=S)NCC3CCCO3)cc2c1 (stereo not given) | 0.35 | -0.01
C/C(=N\NC(=O)c1ccoc1C)c1cccnc1 | 0.02 | 0.95
COc1cc(OC)cc(OCC(O)Cn2cnc(-c3ccccc3)c2)c1 (stereo not given) | 0.8 | -1.4
CCCc1nnc2n1N=C(c1ccc(OC)c(OC)c1)CS2 | 2.1 | -1.7
CCOc1ccccc1N(CC(=O)NCCc1ccccc1)C(=O)CCC(=O)Nc1ccccn1 | 0.08 | -1.8
CCCN(C(=O)c1cc(Cl)nc2ccccc12)C1CCS(=O)(=O)C1 (stereo not given) | 2.7 | 4
Cc1cc(OCC(=O)Nc2ccc(S(=O)(=O)N3CCN(C)CC3)cc2)ccc1Br | 1.9 | 0.2
CC(C)OP(=O)(OC(C)C)C(Nc1ccccn1)c1ccc(F)cc1 (stereo not given) | 0.03 | -0.86
Cc1ccc(Cl)c(NC(=O)CN(C)CC(=O)Nc2ccc(F)c(F)c2F)c1Cl | 0.11 | 0.65
O=C(CN1C(=O)/C(=C/c2ccccc2F)Sc2ccccc21)NCCCN1CCOCC1 | 0.46 | -0.96
COc1ccc(C(=O)OCCOc2ccccc2C(C)=O)c(O)c1 | 0.11 | 1.2
O=C(O)c1ccc(COc2ccccc2[N+](=O)[O-])o1 | 0.32 | 0.55
CC(=O)c1ccc(NC(=O)C2CC(=O)N(C(C)C)C2)cc1 (stereo not given) | 0.29 | -0.35

Quoted at random: 2 compounds from above, in no set order.
SMILES | KCNQ2 enhance | KCNQ2 enhance baseline
Cc1ccc(Cl)c(NC(=O)CN(C)CC(=O)Nc2ccc(F)c(F)c2F)c1Cl | 0.11 | 0.65
CCCN(C(=O)c1cc(Cl)nc2ccccc12)C1CCS(=O)(=O)C1 (stereo not given) | 2.7 | 4

Structures shown so far with an NH in an aromatic ring (seven):
SMILES | KCNQ2 enhance | KCNQ2 enhance baseline
Fc1ccc(-n2c(-c3ccc4ccccc4n3)n[nH]c2=S)cc1Cl | 0.63 | -0.64
CCN1CCN(CCCNC(=O)C(=O)c2c(C)[nH]c3ccccc23)CC1 | 0.94 | -0.26
O=C(NCc1nc2ccccc2[nH]1)c1ccccc1F | 1.1 | 0.97
COc1ccc(/C=N/NC(=O)CCc2n[nH]c(=O)[nH]c2=O)cc1OC | 0.03 | 1.1
CCc1nnc(NC(=O)CSc2ncc(-c3ccccc3)[nH]2)s1 | 0.89 | -0.32
Brc1ccc(-n2c(SCc3nc4ccccc4[nH]3)nnc2-c2ccncc2)cc1 | 0.26 | 1.2
COc1ccc2[nH]c(=O)c(CN(Cc3cccnc3)C(=S)NCC3CCCO3)cc2c1 (stereo not given) | 0.35 | -0.01

(more compounds)
SMILES | KCNQ2 enhance | KCNQ2 enhance baseline
O=C(O)CCC(=O)N1CCOc2ccc(Cl)cc21 | 1.1 | 0.82
CC1(C)CC(=O)C(=CN2CCN(C(=O)c3ccco3)CC2)C(=O)C1 | 0.07 | -0.05
Cc1[nH]c2ccccc2c1C(=O)CSc1cccc[n+]1[O-] | 1.1 | -0.74
Cc1ccc(C(C)C)c(OCC(=O)NS(=O)(=O)c2ccc(Cl)cc2)c1 | 0.45 | -1.4
O=C(c1cccs1)N1CCC(c2nc3ccccc3s2)CC1 | 0.19 | -0.08
CCn1c(=O)cc(SCC(=O)NCC2CCCO2)c2ccccc21 (stereo not given) | 1.1 | -0.05
O=C(CCCc1nc(-c2ccccc2)no1)NCc1cccnc1 | 0.79 | -0.33
O=C(O)CCc1ccc(-c2ccc(Cl)cc2)n1CCC(=O)O | 0.01 | 0.07
Cc1cc(Cl)cc(C)c1OCC(=O)O | 0.95 | 1
Cc1cc(C)c2[nH]c(C(=O)Nc3ccc(F)cc3Br)cc2c1 | 0.35 | 0.01
COc1ccc(-c2coc3c(CN4CCOCC4)c(O)ccc3c2=O)cc1 | 0.01 | 0.15
O=C(Nn1c(-c2ccc(Br)cc2)nc2ccccc2c1=O)c1cccnc1 | 0.7 | 0.2
COC(=O)Cc1c(O)ccn(Cc2ccccc2OC)c1=O | 0.08 | 2.7
Cc1ccc(S(=O)(=O)NC(C(=O)N2CCOCCOCCOCCOCC2)c2ccccc2)cc1 (stereo not given) | 0.09 | -1.2
Clc1ccc(CN2C3=NCCN3c3ccccc32)cc1Cl | 0.42 | -0.69
CCCCCn1c(N2CCN(Cc3ccccc3)CC2)nc2c1c(=O)[nH]c(=O)n2C | 0.36 | 1.1
Nc1nc2ccccc2n1CCOc1ccc(Cl)cc1 | 2.5 | -0.02
CCN(CC)c1nc2ccccc2nc1C(C#N)C(=O)NCCCOC (stereo not given) | 0.25 | 0.22
COc1ccc(C(=S)Nc2ccccc2)cc1 | 1.4 | 0
Cc1cccc(NC(=S)N(CCN(C)C)Cc2cc3cccc(C)c3[nH]c2=O)c1 | 0.68 | 1.4
Cc1ccc(N/C=C/C(=O)C(C)(C)C)c(O)c1 | 8.3* | -0.01*
COc1ccc(S(=O)(=O)N(C)CC(=O)NCc2ccccn2)cc1 | 0.11 | 0.68
COCCNC(=O)CCCn1c(=O)c2cc(OC)c(OC)cc2n(CC(=O)c2cccc(OC)c2)c1=O | 1 | -0.07
CC(=O)COc1ncn(-c2ccccc2)n1 | 0.48 | 0
O=C(c1cccnc1)N1C2C=CC(C2)C1(C(F)(F)F)C(F)(F)F (stereo not given) | 0.26 | -0.84
Cc1ccc(-n2c(C)cc(C)c(C#N)c2=O)cc1Cl | 0.58 | 0.12
Cc1ccc(-n2nc(C)c3c2NC2=C(C(=O)CC(C)(C)C2)C3c2ccccc2OCC(=O)O)cc1 (stereo not given) | 0.88 | 1.1
O=C(NCCc1ccccc1F)/C(=C/c1cccnc1)NC(=O)c1ccccc1 | 0.18 | 0.11
COc1cc([N+](=O)[O-])ccc1N/C=C/C(=O)c1cccs1 | 0.62 | -0.96
Cc1c(C(=O)O)sc(=S)n1CCOc1ccccc1 | 0.17 | 0.68
Cc1noc(C)c1-c1nnc(-c2ccc(C(F)(F)F)cc2)o1 | 3.6 | 0.01
CCCCCCc1c(C)nc(-n2[nH]c(C)c(CCO)c2=O)[nH]c1=O | 0.68 | -0.66
CN(Cc1ccccc1)C(=O)c1cc(S(=O)(=O)N2CCOCC2)cn1C | 0.15 | -0.61
O=C(NS(=O)(=O)Oc1cccc(F)c1)OC[C@@H]1CCCN2CCCCC12 (stereo not given in full) | 1.3 | -1.2
CC1(C)CC(=O)C2=C(C1)NC(=O)CC2c1cccc(F)c1 (stereo not given) | 0.26 | 0.91
CCOC(=O)c1sc(N2N=C(C)/C(=C\c3ccc(OCC(=O)OC)cc3)C2=O)nc1C | 0.15 | -0.01
Cc1cc(=O)n2nc(N3CCCC(C(=O)N4CCN(C)CC4)C3)sc2n1 (stereo not given) | 0.92 | -0.81
CCOc1c(Cl)cc(C(=O)Nc2cccc(C(=O)O)c2)cc1Cl | 0.97 | -0.06
COc1cc(CNCCCN2CCOCC2)c(Br)cc1OCC(=O)Nc1ccccc1C | 1.1 | 0.03
Cc1cc(C)c(C)c(S(=O)(=O)NCC(=O)Nc2ccc(F)cc2)c1C | 0.06 | 0.24
O=C(Nc1cccnc1)c1cc(-c2ccc(Cl)cc2)on1 | 0.76 | 0.59
COc1ccc(Cl)c(S(=O)(=O)N2CCCC2)c1 | 0.84 | 1.8
COc1ccc(OCCNS(=O)(=O)c2cccc([N+](=O)[O-])c2)cc1 | 0.21 | -0.21
C#CCn1cc(/C=C2\NC(=O)NC2=O)c2ccccc21 | 0.51 | -0.59
CCOCCc1c(O)nc(SC)[nH]c1=O | 3 | -2.7
Cc1ccc(NC(=O)C2CCN(S(=O)(=O)c3ccc4c(c3)NC(=O)C(C)S4)CC2)cc1Cl (stereo not given) | 1.4 | 0.01
Cc1c([N+](=O)[O-])c([N+](=O)[O-])nn1CC(=O)N1CCCCC1 | 0.73 | -1.2
CCCCCn1c(=O)[nH]c2cc(C(=O)NCCCN3CCCCC3CC)ccc2c1=O (stereo not given) | 1.8 | 0.15
CCOc1cccc(CN2CCN(Cc3ccc(C)o3)C(CCO)C2)c1O (stereo not given) | 0.81 | -0.45
CC1=CC(C)(C)C(C(=O)O)C(C(=O)O)C1 (stereo not given) | 0.4 | 0.75
